ClpP mod: qHTS Assay for Activators of ClpP; ATP-dependent Clp protease proteolytic subunit (Bacillus subtilis (strain 168)), P80244; purified B. subtilis ClpP, FRET peptide cleavage, 20 min; Potency, µM (highest dose often 57.5 µM), for inactives: top-dose activity change, negative = active; 340,000 tested, 1.9% active; active = well fitted falling curve with a large enough effect; inconclusive = small, poorly fitted or top-dose-only effect; inactive = no such curve, though single readings can be large or run the other way; also: potency is read from the fitted curve at half-maximal effect; the source files actives as falling curves though it sought activators and does not explain the sign; nearly all actives have a fitted effect of over 65% in size; many hits overshoot -100%
Target sequence (P80244 whole entry, looked up): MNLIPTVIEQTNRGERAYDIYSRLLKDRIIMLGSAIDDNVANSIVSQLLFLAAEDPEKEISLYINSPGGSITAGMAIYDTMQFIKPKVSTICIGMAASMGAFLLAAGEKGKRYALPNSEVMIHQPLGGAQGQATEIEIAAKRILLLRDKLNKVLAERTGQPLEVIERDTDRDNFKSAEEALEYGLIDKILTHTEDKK
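Buffer: 100 mM Tris/HCl pH8, 100 mM KCl, 0.05% low protease BSA, 2.5% glycerol, 0.01% Tween-20. ClpP 10 microg/mL final; 20 min RT; delta FRET normalized to ADEP and DMSO controls.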
TRPML1 inh: human mucolipin-1 channel inhibition. 390,000 tested, 0.02% active. TRPML1-inducible cells, Ca2+ dye fluorescence, FDSS; stronger effect = lower value; inhibition of EC80 agonist-evoked calcium signal. activity change, negative = inhibition, % (no concentration beside the values); in the data active means activity change below about -50%; inconclusive means about -30% to -50%; inactive means above about -30%;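 also: stimulus is agonist 54-4 at its EC80 concentration; % is scaled to controls: 0 for no effect and ±100 for the full control effect; compound concentration not given in the record; the text of the record puts the active cut at -80%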
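Calcium fluorescence in TRPML1-DL cells induced overnight with Tet: a 110 s read after compound pin addition, then a 110 s antagonist read after challenge with 54-4 at 4 uM final (EC80).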
PINK1 modulator: changes PINK1 expression | 410,000 tested, 0.2% active | PINK1 immunofluorescence, high-content cytometry, 24 h | Potency, µM (highest dose often 76.6 µM), inactives show at the top dose activation (PINK1 increase), actives largely listed as activators | AID 624263; active = well fitted activation curve with a large enough effect; inconclusive = small, poorly fitted or top-dose-only effect; inactive = flat fitted curve, though single readings scatter; cell line not stated here;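 also: potency is read from the fitted curve at half-maximal effect; % of control where 0% means no effect; nearly all actives have a fitted effect of over 65% in size; a mitochondrial uncoupler was the plate control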
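PINK1 protein, normally rapidly degraded, was detected by immunofluorescence after 24 hour compound treatment of a stable cell line. Titration data (5 concentrations) came from laser-scanning cytometry, with CCCP-treated wells as controls.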
Menin MLL FP FL: menin-MLL binding inhibition, fluorescein peptide | Fluorescence polarization, fluorescein-MLL peptide displacement from menin | FP activity change, % at 61.4 µM | 290,000 tested, under 10 active | AID 1766; inconclusive = falling polarisation curve, or a change in total fluorescence; inactive = total fluorescence flat and polarisation flat or rising; no compound was filed as active; the % refers to the polarisation; negative = inhibition;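 also: % of control where 0% means no effect; inhibitors lower the polarisation; unlabelled MLL peptide was the positive control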
Sfp PPTase inh: inhibitors of Bacillus subtilis Sfp phosphopantetheinyl transferase | Q9F4F7 | Biochemical Sfp PPTase activity, qHTS | Potency, µM, for inactives: max response, negative = inhibition, hits mostly inhibitors | 310,000 tested, 3.5% active | AID 1490; active = well fitted inhibition curve with a large enough effect; inconclusive = small, poorly fitted or top-dose-only effect, or another doubt; inactive = no such curve, though single readings can be large or run the other way;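 also: the enzyme is Sfp with the accession as filed and its product quenches rhodamine fluorescence; potency is read from the fitted curve at half-maximal effect; 0% = enzyme reaction without inhibitor and -100% = no enzyme wells; top concentration of the series not given in the record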
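Step 1, compound plus 15 nM Sfp-PPTase, 15 min, room temperature. Step 2, add rhodamine-CoA (5 uM) and BHQ-2-YbbR (12.5 uM). Step 3, read 525/598 nm fluorescence at 0 and 30 min.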
TRPV1 PAM: potentiators of human vanilloid receptor 1 (TRPV1) | Q8NER1 | TRPV1-expressing cells, Fluo-8 calcium influx, capsaicin EC20 potentiation; host cell line not named in the record; control for the full effect not named in the record | potentiation, % at 8.33 µM | 320,000 tested, 0.02% active; active means potentiation above 80%; inconclusive means 30% to 80%; inactive means below 30%; also: 0% is about no effect
Target sequence (Q8NER1 whole entry, looked up): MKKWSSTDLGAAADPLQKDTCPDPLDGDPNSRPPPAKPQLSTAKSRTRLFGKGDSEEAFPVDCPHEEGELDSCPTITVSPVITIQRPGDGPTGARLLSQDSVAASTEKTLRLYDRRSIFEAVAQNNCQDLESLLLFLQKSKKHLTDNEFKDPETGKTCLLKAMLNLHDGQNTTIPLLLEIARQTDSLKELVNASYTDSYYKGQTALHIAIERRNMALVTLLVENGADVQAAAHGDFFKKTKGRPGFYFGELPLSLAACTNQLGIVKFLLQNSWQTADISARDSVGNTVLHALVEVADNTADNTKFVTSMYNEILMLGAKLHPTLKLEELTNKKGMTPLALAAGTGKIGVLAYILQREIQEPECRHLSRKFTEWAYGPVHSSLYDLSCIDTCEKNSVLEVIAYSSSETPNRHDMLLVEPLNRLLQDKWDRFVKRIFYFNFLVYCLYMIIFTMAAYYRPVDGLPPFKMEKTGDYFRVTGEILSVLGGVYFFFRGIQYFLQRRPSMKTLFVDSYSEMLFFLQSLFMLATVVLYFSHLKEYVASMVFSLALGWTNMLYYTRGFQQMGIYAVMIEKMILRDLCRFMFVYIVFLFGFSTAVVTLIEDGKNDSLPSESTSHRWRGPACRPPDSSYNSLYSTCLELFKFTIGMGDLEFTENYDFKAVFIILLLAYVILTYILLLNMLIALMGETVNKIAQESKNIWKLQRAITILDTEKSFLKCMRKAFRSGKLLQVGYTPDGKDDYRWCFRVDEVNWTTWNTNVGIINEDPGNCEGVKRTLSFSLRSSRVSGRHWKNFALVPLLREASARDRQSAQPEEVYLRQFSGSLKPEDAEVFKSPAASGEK
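TRPV1-expressing cells were cultured overnight at 35.5C and loaded with Fluo-8 calcium dye for 40 to 90 min at room temperature. After a 10 s baseline, compound was added and calcium influx was read kinetically for 3 min (ex 480/em 520 nm).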
TRPML1 ag: activates the human TRPML1 channel. Q9GZU1. TRPML1-expressing cells, Ca2+ dye fluorescence, FDSS; host cell line not named in the record; reference of the full effect not given here. activation, % (test concentration not listed). 410,000 tested, 0.12% active; in the data active = activation above about 50%; inconclusive = about 30% to 50%; inactive = below about 30%; also: 0% is about no effect; the text of the record puts the active cut at 80%
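Tetracycline-induced TRPML1-DL cells are seeded and incubated overnight before loading with a no-wash Ca2+ dye and quencher. Agonist activity is taken from the 110 s fluorescence read following compound pin-transfer on an FDSS, before EC80 54-4 challenge.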
The depositor's hits bear a star; [ ] = another dose, or the depositor's remark.

O=C(CSc1nnc(NC(=O)Cc2ccccc2)s1)NCC1CCCO1 (configuration not stated) was read as TRPML1 inh -2, PINK1 modulator -1.2%, Menin MLL FP FL 3.3, Sfp PPTase inh 10%, TRPV1 PAM 16 and TRPML1 ag -0.5.
`Cc1cc(NC(=O)c2cc(C3CC3)on2)n(-c2ccccc2)n1` gave ClpP mod -0.4%, TRPML1 inh 1, PINK1 modulator -0.8%, Menin MLL FP FL 3.9, Sfp PPTase inh -8%, TRPV1 PAM 9 and TRPML1 ag 0.0.
Screening O=C(CSc1nc2ccsc2c(=O)n1Cc1ccccc1F)NCc1ccccc1 returned ClpP mod 3.7%, TRPML1 inh 8, PINK1 modulator 4.5% and TRPML1 ag 1.8.
`O=S(=O)(O)c1cc2oc(-c3ccccc3)nc2c2ccccc12` gave ClpP mod 4.8%, TRPML1 inh 10, PINK1 modulator -0.7%, TRPV1 PAM 3 and TRPML1 ag 0.2.
Screening COc1cccc(CNC(=O)Cn2nc(C)c3c(C)n(-c4ccc(C)cc4)nc3c2=O)c1OC returned ClpP mod -1.3%, TRPML1 inh -10, PINK1 modulator 2.2%, Menin MLL FP FL -1.2, Sfp PPTase inh 12%, TRPV1 PAM -5 and TRPML1 ag 0.1.
`CN(C(=O)c1cccs1)c1ccccc1C(=O)O` gave ClpP mod 20µM*, TRPML1 inh -13, PINK1 modulator -1.3%[38.3 µM], Menin MLL FP FL 1.1, Sfp PPTase inh 6%, TRPV1 PAM -17 and TRPML1 ag 0.2.
O=C(Nc1ccc(-c2nc3ccccc3o2)cc1)c1cc(-n2cnnc2)ccc1Cl was read as ClpP mod inconclusive, TRPML1 inh -10, PINK1 modulator 3.2%, Menin MLL FP FL -1.2, Sfp PPTase inh 2%, TRPV1 PAM -3 and TRPML1 ag 0.1.
`Cc1cc(C)n(CC(=O)Nc2cc(F)ccc2F)c(=O)c1C#N` gave ClpP mod inconclusive, TRPML1 inh 2, PINK1 modulator 1.6% and TRPML1 ag 1.6.
Screening O=c1cccccc1NN=C1CCCCC1 returned TRPML1 inh -6, PINK1 modulator -1.1%, Menin MLL FP FL inconclusive, Sfp PPTase inh inconclusive, TRPV1 PAM -8 and TRPML1 ag 0.5.
Screening Cc1cc(C)nc(SCC(=O)NNS(=O)(=O)c2ccc(C#N)cc2)n1 returned ClpP mod -7.0%, TRPML1 inh 8, PINK1 modulator 2.8%, TRPV1 PAM 11 and TRPML1 ag -0.2.
Cc1ncccc1C(=O)N1CCCC(c2cc(C(=O)Nc3ccc(C(C)(C)C)cc3)no2)C1 (configuration not stated) was read as ClpP mod -2.9%, PINK1 modulator 0.2% and TRPML1 ag 0.5.
`Cn1c(=O)c2c(-c3ccc(C(C)(C)C)cc3)n(N3CCOCC3)cc2n(C)c1=O` gave ClpP mod -2.4%, TRPML1 inh 14, PINK1 modulator -0.4%, Menin MLL FP FL 2.3, Sfp PPTase inh 8%, TRPV1 PAM -7 and TRPML1 ag -0.1.
CCCc1cc(C(=O)NCc2ccc(OC)cc2)no1 was read as ClpP mod 0.2%, TRPML1 inh 0, PINK1 modulator -0.3%, Menin MLL FP FL -2.0, Sfp PPTase inh 5% and TRPML1 ag 0.3.
For CCOc1ccc(C(=O)Nc2ccc(-n3nncc3-c3ccccc3)cc2)cc1OCC the results were ClpP mod 0.2%, TRPML1 inh 7, PINK1 modulator 1.4% and TRPML1 ag 1.2.
COc1cccc(/C=C2\N=C(C3CCCCC3)OC2=O)c1OC was read as ClpP mod 2.2%, TRPML1 inh 22, PINK1 modulator -0.1%, Menin MLL FP FL 3.3, Sfp PPTase inh 21%, TRPV1 PAM -5 and TRPML1 ag -0.2.
O=C(NNS(=O)(=O)c1ccc(F)cc1)c1ccccc1 was read as ClpP mod -2.5%, TRPML1 inh -23, PINK1 modulator -0.8%, Menin MLL FP FL -6.5, Sfp PPTase inh 15%, TRPV1 PAM 0 and TRPML1 ag -0.4.
CCN(CC)S(=O)(=O)c1ccc(N2CCN(c3ccccc3O)CC2)nc1 was read as TRPML1 inh -17, PINK1 modulator 0.0%, Menin MLL FP FL -1.2, Sfp PPTase inh 12%, TRPV1 PAM 1 and TRPML1 ag 0.9.
For Cc1ccc(-n2c(=O)c(C#N)cc3c(=O)n4cccc(C)c4nc32)cc1 the results were ClpP mod inconclusive, TRPML1 inh -13, PINK1 modulator -2.1%, Menin MLL FP FL 22, Sfp PPTase inh 5%, TRPV1 PAM 11 and TRPML1 ag 0.3.
Screening CNc1cncc(-c2ccc(CN3CCOCC3)cc2)n1 returned ClpP mod 5.1%, TRPML1 inh 49, PINK1 modulator 5.6% and TRPML1 ag -0.8.
`O=C(NCCc1ccccc1)C1CCCN(S(=O)(=O)c2cccs2)C1` (configuration not stated) gave ClpP mod 2.6%, TRPML1 inh -6, PINK1 modulator 1.7%, Menin MLL FP FL 4.2, Sfp PPTase inh 23%, TRPV1 PAM -5 and TRPML1 ag -0.6.

Reprinted from the part before: 2 compounds, then new ones.
Screening CNc1cncc(-c2ccc(CN3CCOCC3)cc2)n1 returned ClpP mod 5.1%, TRPML1 inh 49, PINK1 modulator 5.6% and TRPML1 ag -0.8.
`O=C(NCCc1ccccc1)C1CCCN(S(=O)(=O)c2cccs2)C1` (configuration not stated) gave ClpP mod 2.6%, TRPML1 inh -6, PINK1 modulator 1.7%, Menin MLL FP FL 4.2, Sfp PPTase inh 23%, TRPV1 PAM -5 and TRPML1 ag -0.6.
Cc1ccc(C(=O)NCCc2ccc(S(N)(=O)=O)cc2)cc1[N+](=O)[O-] was read as ClpP mod inconclusive, TRPML1 inh 8, PINK1 modulator -4.2%, Menin MLL FP FL -0.8, Sfp PPTase inh 6%, TRPV1 PAM 14 and TRPML1 ag -0.3.
`CCc1ccccc1N1CC(C(=O)O)CC1=O` (configuration not stated) gave ClpP mod -4.8%, TRPML1 inh -7, PINK1 modulator 2.7%, Menin MLL FP FL -7.0, Sfp PPTase inh 2%, TRPV1 PAM 4 and TRPML1 ag 0.4.
Screening O=C(Nc1ccc(N2C(=O)C3C4C=CC(C4)C3C2=O)cc1)Nc1nncs1 (configuration not stated) returned ClpP mod -2.6%, TRPML1 inh -14, PINK1 modulator 0.8%, Menin MLL FP FL -1.6, Sfp PPTase inh -1%, TRPV1 PAM 9 and TRPML1 ag 0.1.
For Cc1ccc(F)cc1NC(=O)N1CCNC(=O)C1CC(=O)Nc1cc(Cl)ccc1Cl (configuration not stated) the results were ClpP mod 1.5%, TRPML1 inh -7, PINK1 modulator 3.6%, Sfp PPTase inh 18%, TRPV1 PAM -16 and TRPML1 ag 0.9.
For CC1CCC2C(=O)N(c3cccc(OS(=O)(=O)c4ccccc4)c3)C(=O)C2C1 (configuration not stated) the results were ClpP mod 1.2%, TRPML1 inh 3, PINK1 modulator -0.4%, Menin MLL FP FL 2.9, Sfp PPTase inh -3%, TRPV1 PAM 2 and TRPML1 ag 0.2.
For O=C(O)c1cc([N+](=O)[O-])c(Nc2cccc3ccccc23)c([N+](=O)[O-])c1 the results were ClpP mod 1.8%, TRPML1 inh 26, PINK1 modulator 11%, Menin MLL FP FL -12, Sfp PPTase inh -8%, TRPV1 PAM -10 and TRPML1 ag 0.7.
Screening Cc1nc2ccccc2n1CC(O)COc1ccccc1Cl (configuration not stated) returned ClpP mod -1.5%, PINK1 modulator -0.8%, Menin MLL FP FL 2.2, Sfp PPTase inh 13% and TRPV1 PAM -16.
`CC(C)(C)C(=O)CN1C(=O)NC2(CCc3ccccc32)C1=O` (configuration not stated) gave ClpP mod 1.2%, TRPML1 inh 8, PINK1 modulator -0.9%, Sfp PPTase inh 10%, TRPV1 PAM -10 and TRPML1 ag -0.8.
O=C(CCS(=O)(=O)c1cccc2nsnc12)Nc1ccc(F)cc1 was read as ClpP mod -2.6%, TRPML1 inh -14, PINK1 modulator -0.2% and TRPML1 ag 0.7.
Screening Cc1ccc(NC(=O)c2sc3nc[nH]c(=O)c3c2C)cc1Cl returned ClpP mod 22%, TRPML1 inh 8, PINK1 modulator 0.0% and TRPML1 ag -0.9.
`CC1(C)CC(=O)c2sc(NS(=O)(=O)c3ccccc3)nc2C1` gave TRPML1 inh -6, PINK1 modulator 0.1%, Menin MLL FP FL -0.8, Sfp PPTase inh 8%, TRPV1 PAM 3 and TRPML1 ag 1.1.
For Clc1ccc(SCc2cc(N3CCOCC3)nc(-c3ccccn3)n2)cc1 the results were TRPML1 inh 11, PINK1 modulator 1.8%, Menin MLL FP FL -2.1, Sfp PPTase inh -6%, TRPV1 PAM -6 and TRPML1 ag -0.4.
`CCc1ccccc1NC(=O)/C(C#N)=C/c1ccc(Sc2ccccc2)o1` gave ClpP mod -0.4%, TRPML1 inh 80, PINK1 modulator 2.0%, Menin MLL FP FL 21, Sfp PPTase inh 16%, TRPV1 PAM 9 and TRPML1 ag 5.3.
For Cc1c(CC(=O)N[C@@H](C)C(=O)O)c(=O)oc2cc3occ(-c4ccccc4)c3cc12 the results were ClpP mod -7.2%, TRPML1 inh -18, PINK1 modulator -0.4%, Menin MLL FP FL -0.2, Sfp PPTase inh -2%, TRPV1 PAM -13 and TRPML1 ag 1.5.
`COC(=O)c1cn(C(=O)c2ccc(F)cc2)c2ccccc12` gave ClpP mod -1.9%, TRPML1 inh 27, PINK1 modulator 1.3%, Menin MLL FP FL -0.7, Sfp PPTase inh -4%, TRPV1 PAM 4 and TRPML1 ag 1.5.
For COc1cccc(CNc2nc3cc(-c4ccccc4)sc3c(=O)n2C)c1OC the results were ClpP mod inconclusive, PINK1 modulator 0.5% and TRPML1 ag -0.8.
For Cc1nc2c(-c3ccccc3)c[nH]n2c(=O)c1Cc1ccccc1 the results were TRPML1 inh -7, PINK1 modulator -3.0%, Menin MLL FP FL 5.2, Sfp PPTase inh -11%, TRPV1 PAM inconclusive and TRPML1 ag 0.8.
For COc1ccc(C(O)c2nc(-c3ccc4c(c3)OCO4)cs2)cc1 (configuration not stated) the results were ClpP mod 0.1%, PINK1 modulator 0.3% and TRPML1 ag -0.7.
CCC(=O)N1CCC2(CC1)Oc1ccc(F)cc1C(=O)C21CC(c2cccnc2)=NO1 (configuration not stated) was read as ClpP mod -8.9%, TRPML1 inh 6, PINK1 modulator -1.1%, Menin MLL FP FL 3.6, Sfp PPTase inh 9%, TRPV1 PAM 28 and TRPML1 ag 0.3.
For COc1cccc2[nH]c3c(N4CCN(Cc5ccc6c(c5)OCO6)CC4)ncnc3c12 the results were Menin MLL FP FL 2.5, Sfp PPTase inh -8% and TRPV1 PAM 5.
